Assay outcomes: PubChem BioAssay, Broad Institute
A1 inh = inhibitors of A1; hit rate 0.51% among 21,000; MEF A1-2A-BIM cells, caspase-Glo luminescence, 3 h; percent of clofoctol signal, DMSO as zero; caspase activation, % (no concentration beside the values);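 active = most replicate scores above 10, or exactly half above 10 with mean activity above 10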;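 note: effector caspase 3 and 7 activity cleaving a DEVD luciferin substrate; 50 nL library stock added to about 30 µL; numbers are from one replicate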
BJeLR viab HTS = lowers viability of BJeLR cells; viability loss activity score, % (no concentration beside the values); hit rate 0.64% among 30,000; AID 2275; BJeLR fibroblasts viability, CellTiterGlo ATP luminescence, 48 h; HRASV12, hTERT and SV40 LT/ST transformed; in the data active = viability loss activity score above about 50%; about a fifth of its hits are not listed in these tables;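 note: higher score means fewer live cells and less ATP luminescence; stock transfer was 50 or 100 nL into about 30 µL; 0% = vehicle wells and 100% = a reference killing control; one replicate is shown; the record names a cut of 85%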
* hit, by the source's call; · = not tested or not shown.

SMILES | A1 inh | BJeLR viab HTS
CC1CCCN(C(=O)c2ccc(NS(=O)(=O)c3cccs3)cc2)C1 (stereo not given) | · | -3.4
CCn1nc(C)cc1C(=O)Sc1ccccc1Cl | 1.4 | -1.3
Cc1ccc(N/C(N)=N/c2nc(C(F)(F)F)cc(C(F)(F)F)n2)cc1 | -0.5 | 0.0
OC1CCN(Cc2ccccc2)CC1 | · | -1.7
C[C@@H]1CN([C@@H](C)CO)C(=O)c2cccc(NC(=O)Nc3ccccc3)c2O[C@@H]1CN(C)Cc1ccc2c(c1)OCO2 | · | -4.9
C[C@@H]1CN([C@@H](C)CO)C(=O)c2cccc(NC(=O)c3cnccn3)c2O[C@@H]1CN(C)C(=O)Nc1ccc2c(c1)OCO2 | · | 0.1
CCCNC(=O)C1CCN(C(=O)c2sccc2-n2cccc2)CC1 | 1.0 | 2.1
O=C(O)C1c2ccccc2C(=O)N(C2CCCC2)C1c1cccs1 (stereo not given) | · | 1.9
CNC[C@H]1Oc2c(NS(=O)(=O)c3cn(C)cn3)cccc2C(=O)N([C@H](C)CO)C[C@H]1C | · | 0.2
COc1ccc(CN(C)C[C@@H]2Oc3ccc(NS(C)(=O)=O)cc3C(=O)N([C@H](C)CO)C[C@H]2C)cc1 | 0.1 | 0.5
CCCN1C(=O)c2cc(C(=O)NC3CCCC3)ccc2C1O (stereo not given) | · | -3.6
C[C@H]1CN([C@@H](C)CO)C(=O)c2cc(NC(=O)C3CCCCC3)ccc2O[C@@H]1CN(C)C(=O)Nc1ccccc1 | 0.5 | 7.3
CC(C)CNS(=O)(=O)c1ccccc1C(=O)N1CCCCC1 | 0.6 | -6.5
C[C@@H]1CN([C@@H](C)CO)C(=O)c2cccc(NC(=O)NC3CCCCC3)c2O[C@@H]1CN(C)Cc1ccc(Oc2ccccc2)cc1 | · | -7.4
COc1ccccc1-c1nc(N)n[nH]1 | -0.1 | 6.7
C=CCNC(=O)COc1ccc(C(C)C)cc1 | -1.2 | 3.9
CN(C(=O)/C=C\c1ccc2c(c1)OCO2)C(C(=O)Nc1ccc2c(c1)OCO2)c1ccccc1 (stereo not given) | · | -0.5
Cn1c(=O)cc(OCC(=O)N2CCCC2)c2ccccc21 | · | -0.9
CC(Cc1c[nH]c2ccccc12)NC(=O)c1ccco1 (stereo not given) | 0.5 | 4.0
O=C1NCCCC1C(=O)N1CCCCC1 (stereo not given) | 0.6 | -1.0
O=C1Cn2nnc(C(=O)c3ccccc3)c2C2(CCCCC2)O1 | 0.7 | 3.0
Cc1onc(-c2c(F)cccc2Cl)c1C(=O)NC(=S)NC1CCSC1=O (stereo not given) | 0.2 | -0.8
C[C@H]1CN([C@@H](C)CO)C(=O)c2cccc(NC(=O)c3ccncc3)c2O[C@@H]1CN(C)S(=O)(=O)c1cccs1 | · | -0.6
CN1CCc2nc(SCC(=O)Nc3ccccc3OC(F)(F)F)c(C#N)cc2C1 | · | -4.8
O=c1cc(CSc2n[nH]c(=O)n2-c2ccccc2)c2ccc(O)cc2o1 | 0.1 | -2.6
Cc1ccc(S(=O)(=O)Nc2cccc3c2O[C@@H](CN(C)S(=O)(=O)c2ccccc2)[C@H](C)CN([C@H](C)CO)C3=O)cc1 | · | 1.1
CN1CCc2cc3c(cc2C2OC(O)c4c(ccc5c4OCO5)C21)OCO3 (stereo not given) | 0.9 | -2.2
C[C@H](CO)N1C[C@H](C)[C@H](CN(C)S(=O)(=O)c2cn(C)cn2)Oc2ccc(NC(=O)Nc3ccc(C(F)(F)F)cc3)cc2C1=O | 1.4 | 2.5
O=C(CSCc1ccccc1F)NCc1ccccc1 | 0.1 | -8.1
Cc1ccc(Cn2nc(C)cc2C(=O)Nc2ccc(C)cc2)cc1 | 0.0 | -9.2
COc1ccc(NC(=O)Nc2cccc3c2O[C@@H](CN(C)CC2CCCCC2)[C@@H](C)CN([C@H](C)CO)C3=O)cc1 | · | 4.9
C[C@H](CO)N1C[C@H](C)[C@H](CN(C)CC2CCCCC2)Oc2ccc(NC(=O)C3CCCCC3)cc2C1=O | 1.2 | -0.6
C[C@@H]1CN([C@H](C)CO)C(=O)c2cc(NC(=O)Cc3ccccc3)ccc2O[C@@H]1CN(C)Cc1ccc(C(F)(F)F)cc1 | 0.0 | 3.0
COc1ccc(S(=O)(=O)N(C)C[C@@H]2Oc3ccc(NC(=O)Cc4cn(C)c5ccccc45)cc3C(=O)N([C@@H](C)CO)C[C@H]2C)cc1 | -0.1 | 1.6
C[C@@H]1CN([C@H](C)CO)C(=O)c2cc(NS(=O)(=O)c3cccs3)ccc2O[C@H]1CN(C)C | 0.5 | 1.3
CC(C)NC(=O)Nc1ccc2c(c1)C(=O)N([C@@H](C)CO)C[C@H](C)[C@H](CN(C)Cc1ccc(-c3ccccc3)cc1)O2 | -1.0 | 1.6
CC(=O)Nc1ccc(NC(=O)C2CCCN2S(=O)(=O)c2cccc3nsnc23)cc1 (stereo not given) | · | -3.7
COc1ccc(S(=O)(=O)N(C)C[C@H]2Oc3c(NS(=O)(=O)c4ccc(Cl)cc4)cccc3C(=O)N([C@H](C)CO)C[C@H]2C)cc1 | · | 2.2
COc1ccc(S(=O)(=O)N(C)C[C@@H]2Oc3c(NC(=O)Nc4ccccc4)cccc3C(=O)N([C@@H](C)CO)C[C@H]2C)cc1 | · | -0.2
O=C(O)Cc1cncc(Br)c1 | -0.5 | 4.2
CCc1cc2c(cc3c(=O)[nH]ncn32)s1 | -1.6 | -0.9
Cc1ccc(S(=O)(=O)Nc2cccc3c2O[C@@H](CN(C)S(C)(=O)=O)[C@@H](C)CN([C@@H](C)CO)C3=O)cc1 | · | -2.6
C[C@@H]1CN([C@H](C)CO)C(=O)c2cccc(NS(C)(=O)=O)c2O[C@@H]1CN(C)S(=O)(=O)c1ccc(Cl)cc1 | · | -5.9
CCC(C(=O)Nc1cccc(NC(C)=O)c1)c1ccccc1 (stereo not given) | 1.6 | -0.1
O=C1c2ccccc2C(=O)c2c1ncn2-c1ccccc1 | -2.0 | 8.9
C[C@H]1CN([C@@H](C)CO)C(=O)c2cccc(NC(=O)c3nc4ccccc4s3)c2O[C@@H]1CN(C)Cc1ccc(Cl)c(Cl)c1 | · | -10
COc1ccc(S(=O)(=O)Nc2cccc3c2O[C@H](CN(C)S(=O)(=O)c2ccc(F)cc2)[C@H](C)CN([C@H](C)CO)C3=O)cc1 | · | -1.2
C[C@H]1CN([C@@H](C)CO)C(=O)c2cccc(NC(=O)c3nc4ccccc4s3)c2O[C@@H]1CN(C)Cc1ccc(C(F)(F)F)cc1 | · | -4.0
CCN(C(=O)c1cc2c(C)nc3ccccc3c2o1)c1cccc(Cl)c1 | · | -6.6
Cc1ncc(CO)c2cc(-c3nnc(Nc4cc(C(F)(F)F)ccc4Cl)s3)c(=O)oc12 | -3.2 | 3.4
O=C(Nc1cccc(C(F)(F)F)c1)N1CCC(CN2CCc3ccccc3C2)CC1 | -0.8 | -2.9
CSc1sc(=S)sc1SC | -0.8 | 5.2
CC1CN(S(=O)(=O)c2ccc(F)cc2)C(C)CN1S(=O)(=O)c1ccc(F)cc1 (stereo not given) | · | -1.0
Cc1nc(Oc2ccc(Cl)cc2)c(C(=O)O)c(C)c1Cl | 0.0 | 2.1
C[C@H]1CN([C@@H](C)CO)C(=O)c2cccc(NS(=O)(=O)c3ccccc3)c2O[C@H]1CN(C)CC1CCCCC1 | · | -1.3
Cc1ccc(S(=O)(=O)NCc2ccccc2)cc1C(=O)N1CCCCCC1 | -0.5 | 0.4
CNc1nc2ccccc2n2c(C)nnc12 | -0.1 | -3.9
O=S(=O)(/N=S1/CCC2(C1)OCCO2)c1cc(C(F)(F)F)cc(C(F)(F)F)c1 (stereo not given) | 0.1 | -3.4
C[C@@H]1CN([C@H](C)CO)C(=O)c2cc(NC(=O)CCC(F)(F)F)ccc2O[C@@H]1CN(C)Cc1ccc(Oc2ccccc2)cc1 | 1.1 | -6.1
C[C@H](CO)N1C[C@H](C)[C@H](CN(C)C(=O)Nc2ccc(F)cc2)Oc2ccc(NS(=O)(=O)c3cn(C)cn3)cc2C1=O | -0.5 | -2.0

Sorted by formula weight (lowest first): some entries from above.
SMILES | A1 inh | BJeLR viab HTS
Cc1ccc(S(=O)(=O)NCc2ccccc2)cc1C(=O)N1CCCCCC1 | -0.5 | 0.4
O=C(Nc1cccc(C(F)(F)F)c1)N1CCC(CN2CCc3ccccc3C2)CC1 | -0.8 | -2.9
CC1CN(S(=O)(=O)c2ccc(F)cc2)C(C)CN1S(=O)(=O)c1ccc(F)cc1 (stereo not given) | · | -1.0
C[C@@H]1CN([C@H](C)CO)C(=O)c2cc(NC(=O)CCC(F)(F)F)ccc2O[C@@H]1CN(C)Cc1ccc(Oc2ccccc2)cc1 | 1.1 | -6.1

New compounds follow:
SMILES | A1 inh | BJeLR viab HTS
COc1ccc(S(=O)(=O)Nc2ccc3c(c2)C(=O)N([C@@H](C)CO)C[C@@H](C)[C@@H](CN(C)C(=O)Nc2ccccc2)O3)cc1 | 0.8 | 1.1
Cc1onc(-c2ccccc2)c1C(=O)n1nnc2ccccc21 | 2.2 | -0.3
C[C@H](CCC(=O)O)[C@H]1CCC2C3C(=O)CC4CC(=O)CC[C@]4(C)C3CC(=O)[C@@]21C (stereo not given in full) | 0.7 | -5.2
Cc1ccc(S(=O)(=O)c2nc(S(C)(=O)=O)sc2N2CCCC2)cc1 | 0.2 | -0.2
COC(=O)c1cnn(-c2ccccc2)c1C(OC)OC | 0.8 | -0.9
Cc1ccc2oc(-c3ccccc3)cc(=NCCN(C)C)c2c1 | -5.7 | 12
C[C@@H]1CN([C@@H](C)CO)C(=O)c2cccc(NS(=O)(=O)c3ccc(Cl)cc3)c2O[C@@H]1CN(C)C(=O)NC1CCCCC1 | · | -0.2
CC(C)n1c(SCC(=O)c2ccccc2)nc2cc(Cl)ccc21 | -0.3 | -6.8
C[C@H](CO)N1C[C@H](C)[C@H](CN(C)CC2CCCCC2)Oc2ccc(NC(=O)Nc3ccc4c(c3)OCO4)cc2C1=O | -0.5 | -0.4
C[C@@H]1CN([C@H](C)CO)C(=O)c2cccc(NC(=O)Nc3ccc4c(c3)OCO4)c2O[C@H]1CN(C)C(=O)NC1CCCCC1 | · | 3.8
CCCC(=O)N1c2ccccc2NC2=C(C(=O)CCC2)C1c1ccc(OC)c(OC)c1 (stereo not given) | -1.3 | -0.7
C[C@H](CO)N1C[C@H](C)[C@@H](CN(C)Cc2ccncc2)Oc2c(NS(=O)(=O)c3cccs3)cccc2C1=O | · | 2.2

Reprinted from the part before: six compounds, then new ones.
SMILES | A1 inh | BJeLR viab HTS
C[C@@H]1CN([C@@H](C)CO)C(=O)c2cccc(NS(=O)(=O)c3ccc(Cl)cc3)c2O[C@@H]1CN(C)C(=O)NC1CCCCC1 | · | -0.2
CC(C)n1c(SCC(=O)c2ccccc2)nc2cc(Cl)ccc21 | -0.3 | -6.8
C[C@H](CO)N1C[C@H](C)[C@H](CN(C)CC2CCCCC2)Oc2ccc(NC(=O)Nc3ccc4c(c3)OCO4)cc2C1=O | -0.5 | -0.4
C[C@@H]1CN([C@H](C)CO)C(=O)c2cccc(NC(=O)Nc3ccc4c(c3)OCO4)c2O[C@H]1CN(C)C(=O)NC1CCCCC1 | · | 3.8
CCCC(=O)N1c2ccccc2NC2=C(C(=O)CCC2)C1c1ccc(OC)c(OC)c1 (stereo not given) | -1.3 | -0.7
C[C@H](CO)N1C[C@H](C)[C@@H](CN(C)Cc2ccncc2)Oc2c(NS(=O)(=O)c3cccs3)cccc2C1=O | · | 2.2
CCN(C(=O)c1coc(=O)c2ccccc12)c1cc(OC)ccc1OC | · | -0.4
C[C@H](CO)N1C[C@H](C)[C@H](CN(C)Cc2ccc(C(=O)O)cc2)Oc2ccc(NS(=O)(=O)c3cccs3)cc2C1=O | 1.1 | -2.4
C[C@@H]1CN([C@H](C)CO)C(=O)c2cccc(NC(=O)Nc3ccc4c(c3)OCO4)c2O[C@H]1CN(C)CC1CC1 | · | 5.3
COc1ccc(CN(C)C[C@H]2Oc3c(NC(=O)Nc4ccc5c(c4)OCO5)cccc3C(=O)N([C@@H](C)CO)C[C@@H]2C)cc1 | · | -3.0
COc1ccccc1N1CCN(C(=O)C(OC(C)=O)c2ccccc2)CC1 (stereo not given) | · | -0.8
C[C@@H]1CN([C@@H](C)CO)C(=O)c2cccc(NC(=O)C3CCCCC3)c2O[C@H]1CN(C)C(=O)Nc1cccc2ccccc12 | · | -7.1
CCOc1ccc(NC(=O)Cc2ccccc2OC)cc1 | -4.8 | 3.1
C[C@H]1CN([C@@H](C)CO)C(=O)c2cccc(NS(=O)(=O)c3cccs3)c2O[C@H]1CN(C)S(=O)(=O)c1cccs1 | · | -1.8
COc1ccc(NC(=O)Nc2ccc3c(c2)C(=O)N([C@@H](C)CO)C[C@H](C)[C@@H](CN(C)S(=O)(=O)c2ccc(OC)cc2)O3)cc1 | 1.7 | -6.9
Cc1c(N2CCCC2)cc2c(c1N)C(C)(C)CC2(C)C | -0.2 | 3.3
COc1ccc(NC(=O)Nc2ccc3c(c2)C(=O)N([C@@H](C)CO)C[C@@H](C)[C@H](CN(C)C)O3)cc1 | 0.5 | -1.5
CSc1nn(-c2ccccc2)cc1-c1nc(-c2ccccc2)cs1 | 0.4 | 1.2
C[C@H](CO)N1C[C@H](C)[C@H](CN(C)S(=O)(=O)c2cccs2)Oc2c(NC(=O)C3CC3)cccc2C1=O | · | -0.2
C[C@H](CO)N1C[C@H](C)[C@@H](CN(C)S(=O)(=O)c2cccs2)Oc2c(NC(=O)C3CCOCC3)cccc2C1=O | · | 2.5
Cc1cc(N2CCCC2)nc2ccc(NC(=S)NC(C)C)cc12 | · | 3.8
O=C1CCCN2N=C(SCc3ccccc3F)SC2=N1 | · | 5.7
N#Cc1ccccc1NC(=O)CSc1ccccn1 | -0.4 | 2.7
COC(=O)c1ccc(NCc2cc(O)ccc2O)cc1 | 0.9 | 6.5
COc1ccc(OC(=O)c2cc3ccccc3o2)cc1 | -0.5 | -7.6
Brc1ccccc1-c1nc2ccccc2c2nc3ccccc3n12 | 0.1 | 6.9

Not all compounds are listed, so the mix of outcomes need not match the whole.
